From PubChem BioAssay
Menin MLL FP FL: qHTS Assay for Inhibitors Targeting the Menin-MLL Interaction in MLL Related Leukemias: Competition With Fluorescein Labeled MLL-derived Peptide; Fluorescence polarization, fluorescein-MLL peptide displacement from menin; FP activity change, % at 61.4 µM; 290,000 tested, under 10 active; AID 1766, 2009; inconclusive = falling polarisation curve, or a change in total fluorescence; inactive = total fluorescence flat and polarisation flat or rising; no compound was filed as active; the % refers to the polarisation; negative = inhibition;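 note: % of control where 0% means no effect; inhibitors lower the polarisation; unlabelled MLL peptide was the positive control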
gsp antag: qHTS for Antagonists of gsp, the Etiologic Mutation Responsible for Fibrous Dysplasia/McCune-Albright Syndrome: qHTS; Potency, µM (highest dose often 76.9 µM), without a hit: at the top dose activity change, negative = inhibition, actives largely listed as inhibitors; 340,000 compounds, 0.4% hits; AID 624288, 2012; gsp-mutant cells, cAMP HTRF, 30 min; control for the full effect not named in the record; active = falling curve of any shape with a large fitted effect; inconclusive = falling curve, mostly with a smaller effect; inactive = flat or rising curve; cell line not stated here;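 note: intracellular cAMP measured with PDE inhibitor Ro 20-1724 present during compound exposure; potency is the fitted concentration of half-maximal effect; % is set by controls: 0 for no effect and ±100 for the full control effect; nearly all actives have a fitted effect of over 65% in size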
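HTRF cAMP measurement after 30 min RT detection following 30 min, 37C compound treatment alongside […] (added as 300 uM solution) in G418-selected cells seeded at 2000/well and grown 16–24 h.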
D2 PAM: Beta-Arrestin HTS for Positive Allosteric Modulators of the Human D2 Dopamine Receptor: Potentiators. D(2) dopamine receptor (Homo sapiens), P14416. DiscoveRx D2 beta-arrestin cells, luminescence, 90 min; 100% = 57 uM dopamine signal. potentiation, % (test concentration not listed). 360,000 compounds, 0.23% hits. AID 624464, 2012; active = potentiation of 50% or more; inconclusive = 30% to 50%; inactive = 30% or less;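 note: compound concentration not given in the record; tested on top of an EC20 dose of dopamine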
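PathHunter D2 cells, attached overnight at 37 deg C, received compound in DMSO plus dopamine at EC20 (50 nM final) for 90 min at 37 deg C. Beta-arrestin recruitment was read as luminescence after 1 h with detection reagent at ambient temperature.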
gsp agonist: qHTS for Agonist of gsp, the Etiologic Mutation Responsible for Fibrous Dysplasia/McCune-Albright Syndrome: qHTS. Potency, µM (series often up to 76.9 µM), inactives show top-dose activation (cAMP increase), actives largely listed as activators. gsp mutant cells, cAMP HTRF, 30 min; control for the full effect not named in the record. AID 624287, 2012. 340,000 compounds, 0.13% hits; active = well fitted activation curve with a large enough effect; inconclusive = small, poorly fitted or top-dose-only effect, or another doubt; inactive = no such curve, though single readings can be large or run the other way; cell line not stated here;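 note: phosphodiesterase inhibitor Ro 20-1724 added with compounds to block cAMP breakdown; potency is the fitted concentration of half-maximal effect; nearly all actives have a fitted effect of over 60% in size; about a fifth of the inactives were tested at one dose only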
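Cells stably selected in G418 were plated at 2000/well, grown 16-24 hr, then given compounds in DMSO with the PDE inhibitor […] (300 uM solution added) for 30 min at 37C; cAMP was read by HTRF.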
ClpP mod: qHTS Assay for Activators of ClpP. Potency, µM (titrated, usually from 57.5 µM), inactives show at the highest dose activity change, negative = active. 340,000 compounds, 1.9% hits. ATP-dependent Clp protease proteolytic subunit (Bacillus subtilis (strain 168)), P80244. purified B. subtilis ClpP, FRET peptide cleavage, 20 min; active = well fitted falling curve with a large enough effect; inconclusive = small, poorly fitted or top-dose-only effect; inactive = no such curve, though single readings can be large or run the other way; note: potency is the fitted concentration of half-maximal effect; the source files actives as falling curves though it sought activators and does not explain the sign; nearly all actives have a fitted effect of over 65% in size; many hits overshoot -100%
Target sequence (P80244 whole entry, looked up): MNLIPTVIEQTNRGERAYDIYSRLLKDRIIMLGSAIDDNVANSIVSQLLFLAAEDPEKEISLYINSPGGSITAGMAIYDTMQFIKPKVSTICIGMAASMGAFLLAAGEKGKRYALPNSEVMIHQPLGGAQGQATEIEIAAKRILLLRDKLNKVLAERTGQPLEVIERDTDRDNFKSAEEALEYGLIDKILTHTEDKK
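ClpP 10 microg/mL final, pH 8 Tris/KCl buffer with BSA, glycerol, Tween-20; compound pinned in; FRET-FV substrate; RT 20 min; Ex320/Em430; ΔFRET vs ADEP 5.8 microM, DMSO, no enzyme.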
TRPV1 PAM: HTS Assay for Compounds that Act as Potentiators of the Vanilloid Receptor 1; Transient receptor potential cation channel subfamily V member 1 (Homo sapiens), Q8NER1; TRPV1-expressing cells, Fluo-8 calcium influx, capsaicin EC20 potentiation; host cell line not named in the record; control for the full effect not named in the record; potentiation, % at 8.33 µM; 320,000 compounds, 0.02% hits; AID 540277, 2011; active means potentiation above 80%; inconclusive means 30% to 80%; inactive means below 30%; note: 0% is about no effect
Target sequence (Q8NER1 whole entry, looked up): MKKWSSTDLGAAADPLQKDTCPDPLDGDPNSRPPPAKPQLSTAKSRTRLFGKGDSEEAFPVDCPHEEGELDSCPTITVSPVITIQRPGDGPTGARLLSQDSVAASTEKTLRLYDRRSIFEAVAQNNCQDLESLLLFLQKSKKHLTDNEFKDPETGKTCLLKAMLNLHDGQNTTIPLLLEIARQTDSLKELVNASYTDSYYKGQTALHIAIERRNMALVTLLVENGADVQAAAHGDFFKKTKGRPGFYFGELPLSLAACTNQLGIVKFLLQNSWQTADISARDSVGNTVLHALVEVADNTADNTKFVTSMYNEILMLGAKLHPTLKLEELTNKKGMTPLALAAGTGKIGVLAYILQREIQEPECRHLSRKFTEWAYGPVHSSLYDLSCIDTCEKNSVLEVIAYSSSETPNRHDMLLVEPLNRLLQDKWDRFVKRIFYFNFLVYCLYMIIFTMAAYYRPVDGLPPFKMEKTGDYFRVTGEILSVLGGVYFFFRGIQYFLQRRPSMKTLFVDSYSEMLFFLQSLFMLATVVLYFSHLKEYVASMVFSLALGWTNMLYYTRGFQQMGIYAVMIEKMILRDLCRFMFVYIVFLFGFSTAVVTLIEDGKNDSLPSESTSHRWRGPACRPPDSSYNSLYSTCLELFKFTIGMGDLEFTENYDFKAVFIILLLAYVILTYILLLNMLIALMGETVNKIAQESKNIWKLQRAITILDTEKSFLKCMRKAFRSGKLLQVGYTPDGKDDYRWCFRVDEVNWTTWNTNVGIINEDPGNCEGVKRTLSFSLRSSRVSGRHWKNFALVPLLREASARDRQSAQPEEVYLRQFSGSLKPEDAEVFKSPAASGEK
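TRPV1-expressing cells were cultured overnight at 35.5C and loaded with Fluo-8 calcium dye for 40 to 90 min at room temperature. After a 10 s baseline, compound was added and calcium influx was read kinetically for 3 min (ex 480/em 520 nm).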
Sfp PPTase inh: qHTS Assay for Inhibitors of Bacillus subtilis Sfp phosphopantetheinyl transferase (PPTase); Potency, µM, for inactives: max response, negative = inhibition, actives largely listed as inhibitors; Biochemical Sfp PPTase activity, qHTS; 4'-phosphopantetheinyl transferase ffp (Bacillus subtilis), Q9F4F7; 310,000 compounds, 3.5% hits; AID 1490, 2009; active = well fitted inhibition curve with a large enough effect; inconclusive = small, poorly fitted or top-dose-only effect, or another doubt; inactive = no such curve, though single readings can be large or run the other way;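 note: the enzyme is Sfp with the accession as filed and its product quenches rhodamine fluorescence; potency is the fitted concentration of half-maximal effect; 0% = enzyme reaction without inhibitor and -100% = no enzyme wells; top concentration of the series not given in the record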
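After 15 min at room temperature with compound, 15 nM Sfp received 5 uM rhodamine-CoA plus 12.5 uM BHQ-2-ybbR (50 mM Hepes pH 7.6, 10 mM MgCl2). Rate came from the fluorescence difference over 30 min, ex 525/em 598 nm.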
Numbers without * were called inactive; ? = inconclusive; · = no result given; & = joins results of further samples; [ ] = dose if it differs, or a comment.

SMILES | Menin MLL FP FL | gsp antag | D2 PAM | gsp agonist | ClpP mod | TRPV1 PAM | Sfp PPTase inh
COc1ccc(C(=O)Oc2ccc3ccc(=O)oc3c2)cc1 | 3.8 | 7% | 0 | 3% | · | -9 | 1%
Cc1ccc(N(CC(O)Cn2c3ccccc3c3ccccc32)S(C)(=O)=O)cc1 (stereo not given) | -4.8 | 0% | 3 | -8% | -9.6% | 10 | 2%
CN(C(=O)c1ccncc1)C1CCS(=O)(=O)C1 (stereo not given) | 2.7 | 9% | -5 | 0% | 0.0% | 1 | 6%
Nc1cc(N)nc(SCC(=O)Nc2ccc3c(c2)OCCCO3)n1 | 4.4 | 2% | 6 | 8% | 2.6% | 9 | -3%
COc1ccc(NC2CCCN(C(=O)CCOc3ccccc3)C2)cc1 (stereo not given) | 0.7 | -2% | -5 | ? | -6.7% | -19 | 14%
Cc1ccccc1NC(=O)Cc1nnc(SCC(=O)NC2CCCC2)n1C | -1.1 | 5% | -5 | 15% | · | 2 | 19%
O=C(Nc1ccccc1)OCCCCCOC(=O)Nc1ccccc1 | 1.2 | 2% | -4 | -4% | 0.8% | 3 | 11%
O=c1oc(-c2ccccc2)nc2ccsc12 | 2.6 | -10% | 9 | -27% | -1.5% | -14 | 4%
Cc1cn(C2CC(O)C(CO)O2)c(=O)n(Cc2ccccc2)c1=O (stereo not given) | · | 8% | 6 | 3% | 2.2% | · | ·
CCSc1nnc(Cc2cc(=O)[nH]c(=O)[nH]2)n1-c1ccc(F)cc1 | 2.2 | -4% | -6 | 3% | -3.1% | 2 | 10%
CCN1CCCC1CN(Cc1cc2ccc(C)c(C)c2[nH]c1=O)C(=O)Nc1ccccc1OC (stereo not given) | 16 | 6% | -10 | -8% | -8.5% | 17 | -24%
CCOc1ccc(N2C(=O)C3C4C=CC(CC4)C3C2=O)c([N+](=O)[O-])c1 (stereo not given) | -1.8 | -7% | -7 | -20% | -0.4% | -7 | -8%
O=C(O)C1CC(=O)N(Cc2ccccc2)C1 (stereo not given) | 2.1 | 5% | -5 | -2% | 0.9% | -22 | 7%
O=C(CS(=O)(=O)Cc1ccccc1)Nc1nnc(C(F)(F)F)s1 | 3.9 | -16% | 1 | 0% | · | 2 | 19%
COc1cc2ccccc2cc1C(=O)N1CCCC1 | · | -1% | -5 | 22% | ? | ? | 20%
COc1ccccc1CNC(=O)CCC(=O)N1CC(C)Sc2ccccc21 (stereo not given) | -2.7 | 2% | -11 | -23% | -4.1%&-0.2% | 10 | 16%
Cc1c(C(=O)NC2CCCCC2)oc2ccccc12 | -0.8 | -8% | -25 | -3%[15.4 µM] | -0.6% | 14 | 7%
CCN(CC)CCN(C(=O)c1ccc(S(=O)(=O)N2CCCCC2)cc1)c1nc2cc3c(cc2s1)OCO3 | 3.5 | 3% | -14 | 2%[15.4 µM] | · | -6 | 7%
CCN(CC(=O)Nc1ccc(NC(C)=O)cc1)C(=O)c1ccc(Sc2nncn2C)c([N+](=O)[O-])c1 | · | · | -2 | ? | 1.0% | · | ·
COC(=O)c1ccc(NC(=O)CSc2nncn2-c2ccccn2)cc1 | 9.2 | 1% | -1 | 18% | · | -2 | 8%
Cc1nc2ccccc2c(=O)n1NC(=O)/C=C/c1ccccc1Cl | 2.1 | -12% | -4 | 0% | · | 6 | -5%
O=C(Nc1nncs1)C1COc2ccccc2O1 (stereo not given) | -1.2 | -5% | -10 | 16% | -2.0% | 2 | 11%
OCc1cn(-c2ccc(Cl)cc2)nn1 | 0.1 | -3% | -5 | 6% | · | 9 | 14%
COc1ccc(CCCC(=O)NC2CCCCC2)cc1 | 3.6 | 1% | -11 | -28% | -1.2% | -7 | 9%
Cc1c(CC(=O)N2CCN(C(=O)C3COc4ccccc4O3)CC2)c(=O)oc2cc(O)c(Cl)cc12 (stereo not given) | -2.1 | ? | 17 | ? | 4.2% | 8 | 4%
CCOc1cc(C(=S)N2CCOCC2)ccc1OC(=O)c1ccccc1 | 1.3 | -2% | 25 | 1% | 0.5% | 0 | 79µM*
O=C(Cc1csc(-c2ccccc2)n1)Nc1ccc(C(F)(F)F)cc1 | 2.0 | 8% | -11 | -22% | -2.4% | 0 | 4%
COc1cc(/C=C2/SC(=S)N(CC(=O)Nc3cccnc3)C2=O)cc(OC)c1OC | ? | -28% | -25 | -6% | 2.6% | -11 | -23%
COc1ccc(NC(=S)N2CCCC(c3nc4ccc(C)cc4[nH]3)C2)cc1 (stereo not given) | -3.3 | -14% | -17 | 19% | -1.4% | 12 | 7%
S=C(Nc1ccc2c(c1)OCO2)N1CCCC1 | -0.2 | 3% | ? | 29% | -0.2% | -3 | 2%
Cc1nc2sc(-c3ccccc3)cc2c(=O)n1N | -3.6 | -7% | -8 | -42%[inhibitor] | -5.6% | 9 | 10%
Cc1ccc(C(=O)COC(=O)c2cnccn2)cc1[N+](=O)[O-] | -1.4 | 16% | -27 | -28%[15.4 µM] | 0.4% | 8 | 5%
FC(F)(F)c1cccc(Oc2cc(C(F)(F)F)nc(-c3ccccn3)n2)c1 | 2.9 | 17% | -14 | 20% | -1.8% | · | 12%
O=C(O)c1ccc2oc(SCC(=O)N3CCCCC3)nc2c1 | 0.8 | -5% | 0 | 10% | 1.6% | 11 | 1%
CCOc1ccccc1NC(=O)C1CCN(c2ccc(S(=O)(=O)N3CCCC3)cc2)CC1 | 2.0 | 0% | -9 | 12% | ? | -11 | 5%
Cc1ccc(C2CC(c3cccc(NS(C)(=O)=O)c3)=NN2S(C)(=O)=O)cc1 (stereo not given) | 2.7 | -13% | -4 | -20% | -1.2% | 18 | -9%

Part of the list above in another layout.
> COc1ccc(NC(=S)N2CCCC(c3nc4ccc(C)cc4[nH]3)C2)cc1 (stereo not given)
- Menin MLL FP FL: -3.3
- gsp antag: -14%
- D2 PAM: -17
- gsp agonist: 19%
- ClpP mod: -1.4%
- TRPV1 PAM: 12
- Sfp PPTase inh: 7%

> S=C(Nc1ccc2c(c1)OCO2)N1CCCC1
- Menin MLL FP FL: -0.2
- gsp antag: 3%
- D2 PAM: ?
- gsp agonist: 29%
- ClpP mod: -0.2%
- TRPV1 PAM: -3
- Sfp PPTase inh: 2%

(next part)
SMILES | Menin MLL FP FL | gsp antag | D2 PAM | gsp agonist | ClpP mod | TRPV1 PAM | Sfp PPTase inh
COc1ccc(-n2c(COc3ccc4ccccc4c3)nnc2SCC(=O)NCc2ccco2)cc1 | 3.1 | -33% | -8 | -57%[inhibitor] | -0.7% | ? | -1%
COC(=O)c1ccc(C(=O)OC)c(-n2c(=O)c3ccccc3c3ccccc3c2=O)c1 | -0.9 | ? | -32 | -14% | -2.4% | -4 | 2%
CCCC(=O)n1nc(-c2ccccc2)nc1N | 1.5 | 16% | -16 | 22% | 27% | -4 | -3%
CC(C)(C)c1cc[n+](-c2[nH]c(=O)sc2/C=N/N=C(\[O-])c2ccccc2)cc1 | -1.7 | -8% | -4 | 26% | 0.5% | 6 | -4%
CN(CC(=O)Nc1ccc(F)cc1)CC(=O)N(C)C1(C#N)CCCCC1 | · | 7% | -2 | -24% | -1.6% | 1 | ·
CC(C)(C)C(=O)C(Cl)C(=O)Nc1ccccc1 (stereo not given) | -1.0 | 13% | -13 | -15% | -0.6% | 8 | 45µM*
CCOC(=O)Cc1csc(NC(=O)CSc2nc(=O)[nH]c3c2CCCC3)n1 | · | 3% | 24 | -2% | 1.0% | 2 | ·
CSCCC(NC(=O)c1ccc([N+](=O)[O-])cc1Cl)C(=O)OCC(=O)N(C)C (stereo not given) | 5.6 | -8% | 11 | -4% | -2.7% | 1 | 2%
COC(=O)c1c(-c2ccc(S(C)(=O)=O)cc2)sc2cc(OC)ccc12 | · | -24% | 5 | ? | 3.8% | · | ·
Cc1ccc(NC(=O)c2ccc(CSc3ncnc4nc[nH]c34)cc2)c(C)c1 | 11 | -14% | -2 | -38%[inhibitor] | 0.3% | · | 10%
Fc1ccc(-c2nc3c(-c4ccccc4)cnn3cc2CCN2CCOCC2)cc1 | -0.7 | -33% | 1 | -11%[15.4 µM] | · | -5 | -11%
N=c1c2c(-c3ccccc3)c(-c3ccccc3)n(Cc3ccco3)c2ncn1Cc1ccco1 | 1.0 | 4% | -36 | 5% | 3.1% | -4 | 35µM*
COCCn1c(SCC(=O)NCCc2ccccc2)nnc1-c1ccco1 | 0.9 | -3% | -8 | 7% | -1.6% | 6 | -22%
CCc1nnc(NC(=O)c2ccc(-c3ccc([N+](=O)[O-])cc3Cl)o2)s1 | 3.2 | 8% | 4 | 12% | · | 13 | -19%
CCn1nnnc1SCC(=O)NNC(=O)C1CCCCC1 | 0.2 | 7% | -9 | -40%[inhibitor] | -4.0% | 2 | 4%
O=C(CN1CCOCC1)NC1C2CC3CC(C2)CC1C3 (stereo not given) | -0.5 | 4% | -4 | 10% | -0.2% | -7 | -9%
COc1ccc(C(=O)Nc2ccc(C(=O)O)cc2NC(=O)c2ccc(OC)cc2)cc1 | 5.3 | 8% | -5 | -22% | -1.8% | 7 | 16%
Nc1nnc(CC(=O)NCc2ccccc2)s1 | 3.5 | 10% | 7 | 15% | ? | -2 | 5%
O=C(Nc1cccs1)Nc1ccccc1Br | -4.3 | -12% | -9 | -62%[inhibitor] | 2.2% | -9 | -12%
CCCCN1C(=O)c2cccc3cc(O)cc(c23)C1=O | · | 7% | 15 | -5%[15.4 µM] | ? | · | ·
CN(CC(=O)Nc1cccc(F)c1)C(=O)CC1CCCCC1 | · | 14% | -8 | -3% | 0.8% | -4 | ·
C(=N\Nc1nc(N2CCCC2)nc(N2CCCC2)n1)/c1ccncc1 | -1.3 | · | 3 | 0%[15.4 µM] | · | 2 | 12%
